Polio RdRp inh: poliovirus RdRp elongation inhibitors, primary screen, biochemical, fluorescence polarization, total intensity | % elongation, % (compound at 16.7 µg/mL) | actives 0.66% (n = 150,000) | poliovirus polymerase elongation; stronger effect = lower value | Genome polyprotein (Poliovirus type 1 (strain Mahoney)), P03300; in the data active = % elongation below about 90%; also: some results filed as inactive read as strong as hits
Target sequence (P03300 1749-2209 limits assumed): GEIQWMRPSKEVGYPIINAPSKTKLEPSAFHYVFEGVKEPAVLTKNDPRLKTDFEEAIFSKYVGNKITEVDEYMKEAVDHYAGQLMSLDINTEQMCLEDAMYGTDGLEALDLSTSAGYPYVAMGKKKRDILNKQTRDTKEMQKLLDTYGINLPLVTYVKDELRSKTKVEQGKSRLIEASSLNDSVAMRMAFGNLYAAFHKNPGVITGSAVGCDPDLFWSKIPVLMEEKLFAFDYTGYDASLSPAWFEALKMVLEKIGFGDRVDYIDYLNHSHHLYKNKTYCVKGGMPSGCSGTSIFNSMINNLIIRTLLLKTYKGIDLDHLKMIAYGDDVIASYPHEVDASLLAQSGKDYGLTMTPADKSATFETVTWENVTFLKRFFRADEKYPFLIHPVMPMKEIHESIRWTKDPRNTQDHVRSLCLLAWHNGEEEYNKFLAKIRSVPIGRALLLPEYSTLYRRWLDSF
Polio RdRp inh intensity: second read-out of Polio RdRp inh, no call of its own (marks repeat the call); % elongation; measured here: total intensity read-out; formula for this scale not given here;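 total fluorescence in place of polarization; lower means less elongation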
Starred values were filed as active, the others as inactive. Some of the compounds tested (hit frequency here may not be typical).

mol	Polio RdRp inh	Polio RdRp inh intensity
COc1ccc(N(Cc2cc3cccc(C)c3[nH]c2=O)C(=O)c2cccc(Cl)c2)cc1	113	114
Cc1cc(C)cc(OCCCn2c(CCNC(=O)C3CCCCC3)nc3ccccc32)c1	106	111
COc1ccc(CNC(=O)CCn2nc(C)c3c(C)n(-c4ccccc4)nc3c2=O)cc1OC	110	111
COc1ccc(NC(=O)c2cccc(N3CCCS3(=O)=O)c2)cc1OC	105	110
CCc1ccc(NC(=O)CN2C(=O)CCSc3ccccc32)cc1	105	110
CCOC(=O)C1CCCN(C(=O)c2nn(-c3ccc(C)cc3)c(=O)c3c2c2ccccc2n3C)C1 (stereo not given)	106	109
Cc1ccc(CSc2ncc(Cl)c(C(=O)Nc3nc4ccc(C)cc4s3)n2)cc1	110	109
COc1ccc(-c2cc(C)no2)cc1S(=O)(=O)N1CCN(c2ccc(C(C)=O)cc2)CC1	105	112
CCOC(=O)c1c(C)[nH]c(C)c1S(=O)(=O)N1CCCC(C(=O)N2CCN(c3cccc(Cl)c3)CC2)C1 (stereo not given)	114	108
Cc1cccc(NC(=O)c2ccc3[nH]c(C)cc(=O)c3c2)c1	108	99
Cn1c(=O)c(=O)n(C)c2cc(N3CCCC3)c(NC(=O)c3ccc(C(C)(C)C)cc3)cc21	98	100
CCOC(=O)c1c(C)oc2nc(C)nc(NCC3CCN(Cc4ccc(Cl)cc4)CC3)c12	110	112
COC(=O)c1ccc(NC(=O)CC2C(=O)N(c3ccccc3)C(=O)N2Cc2ccco2)cc1 (stereo not given)	108	106
CN(C)c1ccc(C(CNS(=O)(=O)c2ccc(Cl)cc2)N2CCCC2)cc1 (stereo not given)	101	107
O=C(CNC(=O)c1ccccc1F)OCc1cc(=O)n2ccsc2n1	111	109
CCOc1ccc(NC(=O)CCc2c(C)nc3c(c(C)nn3-c3ccccc3)c2C)cc1	105	106
COc1ccc(NC(=O)c2cc3c(=O)n(Cc4cccs4)ccc3nc2C)c(OC)c1	114	115
Cc1cc(C)c(Cn2c(=O)n(CCCCCC(=O)NCc3ccc4c(c3)OCO4)c(=O)c3sccc32)c(C)c1	108	112
Cc1nn2c(=O)cc(COC(=O)c3ccc(C(C)(C)C)cc3)nc2s1	108	112
Cc1nc2nc(NC(=O)c3ccc(C(C)(C)C)cc3)[nH]n2c(=O)c1Cl	108	103
O=C(CN1C(=O)COc2ccc(S(=O)(=O)N3CCCC3)cc21)NCCc1ccc(Cl)cc1	125	131
COC(=O)c1c(C)sc(-c2c(-c3ccc4c(c3)OCCO4)[nH]c3[nH]c(=O)[nH]c(=O)c23)c1O	127	129
COC(=O)c1sccc1S(=O)(=O)N(CC(=O)NCc1ccc(C)cc1)c1ccc(Cl)cc1	99	106
Cc1[nH]c(=O)[nH]c(=O)c1C1N2CC3(C(C)C)CN1CC(C(C)C)(C2)C3=O (stereo not given)	110	113
Cc1ccc(CS(=O)(=O)Cc2ccc(C(=O)NCCc3ccc(Cl)cc3)o2)cc1	111	112
CCC1CN(C(=O)N2CCC(C(=O)NCc3cccs3)CC2)c2ccccc2O1 (stereo not given)	111	116
CCOC(=O)c1ccccc1NC(=O)CSc1cc(C)[nH]c(=O)n1	112	114
Cc1ccc(-n2nc(C(=O)Nc3ccc(Br)cc3C)c(=O)n(C)c2=O)cc1	99	107
CCOc1ccc(NC(=O)Cn2nc(SC)c(S(=O)(=O)c3ccccc3)c2N)cc1	105	114
COc1ccc(C(C)=O)cc1CSc1nc(NCCc2ccccc2)c2ccccc2n1	109	114

7 structures already listed, ordered by SMILES length, rising.
mol	Polio RdRp inh	Polio RdRp inh intensity
O=C(CNC(=O)c1ccccc1F)OCc1cc(=O)n2ccsc2n1	111	109
COc1ccc(C(C)=O)cc1CSc1nc(NCCc2ccccc2)c2ccccc2n1	109	114
CN(C)c1ccc(C(CNS(=O)(=O)c2ccc(Cl)cc2)N2CCCC2)cc1 (stereo not given)	101	107
CCOc1ccc(NC(=O)Cn2nc(SC)c(S(=O)(=O)c3ccccc3)c2N)cc1	105	114
CCOc1ccc(NC(=O)CCc2c(C)nc3c(c(C)nn3-c3ccccc3)c2C)cc1	105	106
COC(=O)c1ccc(NC(=O)CC2C(=O)N(c3ccccc3)C(=O)N2Cc2ccco2)cc1 (stereo not given)	108	106
Cc1cc(C)c(Cn2c(=O)n(CCCCCC(=O)NCc3ccc4c(c3)OCO4)c(=O)c3sccc32)c(C)c1	108	112

Going on with the list:
mol	Polio RdRp inh	Polio RdRp inh intensity
Cc1cc(C)c(S(=O)(=O)N2CCC(n3c(C(F)(F)F)nc4cccnc43)CC2)c(C)c1	112	111
Cc1c(Cl)cccc1NC(=O)c1cc(S(=O)(=O)N2CCCCC2)cn1C	106	110
CCCNC(=O)c1ccc2nc(CCc3ccccc3)oc2c1	106	109
Cc1cccc(NC(=O)CSc2nc3ccc(NC(=O)CCc4ccccc4)cc3s2)c1	103	101
CC(=O)Nc1c(C)nn(-c2ccccc2)c1N1CCC(C(=O)NCc2ccc(Cl)cc2)CC1	116	115
Cc1ccc2c(CN3CCN(C(=O)c4ccc(F)cc4)CC3)cc(=O)oc2c1	104	103
COc1ccc(NC(=O)Cn2c(SCc3ccc(C)cc3)nc3cccnc32)c(OC)c1	99	106
CCOc1ccc(C(=O)Nc2ccc3nc(N(CC)CC)cc(C)c3c2)cc1	107	112
COc1ccc(S(=O)(=O)N(CC(=O)Nc2ccc(C)cc2)c2ccc(C)cc2)cc1OC	110	112
COC(=O)c1ccc(Cn2nnc3sc4c(c3c2=O)CCCC4)cc1	106	112
Cc1cccc(C(=O)NCCc2nc3ccccc3n2Cc2ccc(Cl)cc2)c1	111	115
CNC(=O)c1cnc2sc(N3CCC(C)CC3)nn2c1=O	99	103
Cc1cccc(CNC(=O)Cn2c(-c3cccs3)cc3ccccc32)c1	110	106
O=C(NCc1ccccc1F)C1CCN(c2nn3cc(-c4ccc(F)cc4)nc3s2)CC1	109	94
CCc1ccc(CNC(=O)c2sc3ncnc(N(C)C4CCCCC4)c3c2C)cc1	109	111
CCOc1ccccc1NC(c1nnc(-c2ccccc2)o1)c1ccc(F)cc1Cl (stereo not given)	103	102
Cc1cc(C)c2oc(C(=O)Nc3ccc(S(=O)(=O)N4CCCCCC4)cc3)cc(=O)c2c1	109	116
COc1cccc(Cn2c(=O)n(CCc3ccccc3)c(=O)c3c2c2cc(OC)ccc2n3C)c1	107	111
CCOc1ccc(CN2CCN(S(=O)(=O)c3ccc(Cl)cc3)CC2)cc1	103	100
Cc1cc(C(=O)Nc2ccc(Cl)cc2)c2c(C)nn(-c3ccccc3)c2n1	103	109
Cc1ccc(OCC(=O)Nc2ccc3nc(SCC(=O)Nc4ccc(C)cc4C)sc3c2)cc1	108	113
COc1ccc(CNC(=O)c2nnn(CC(=O)Nc3cc(C)cc(C)c3)c2N)cc1	107	111
Cc1cc2c(cc1NS(=O)(=O)c1ccc(NC(=O)CC(C)C)cc1)n(C)c(=O)c(=O)n2C	101	104
Cc1ccc(S(=O)(=O)Nc2cccc(-c3cn4cccc(C)c4n3)c2)c(C)c1	104	103
CC(=O)N1CCc2c(sc3c2c(=O)n(Cc2ccccc2)c(=O)n3Cc2cc(C)ccc2C)C1	104	110
O=C(COc1ccccc1F)Nc1ccc2nc(SCC(=O)N3CCCC3)sc2c1	108	110
COc1ccc(N2CCN(Cc3cc(=O)oc4ccc(OC)cc34)CC2)cc1	108	109
Cc1cc(F)ccc1NC(=O)C(c1ccccc1)N1Cc2ccccc2C1=O (stereo not given)	109	109
CCOC(=O)N1CCN(Cc2nc3cc(NC(=O)c4ccc(OC)cc4)ccc3n2C(C)C)CC1	107	111
CCOc1ccc(NCc2cccn2-c2nnc(N3CCC(C(=O)NCc4ccc(C)cc4)CC3)s2)cc1	108	109
Cc1c(C(=O)Nc2ccc(C(=O)O)cc2)nnn1-c1ccccc1	103	110
CCC(=O)N1CCc2cc(Br)cc(S(=O)(=O)CCC(=O)NCCc3ccc(C)cc3)c21	104	97
COc1cccc(CNC(=O)C(NS(=O)(=O)c2cccs2)C(C)C)c1 (stereo not given)	107	108
CCOc1ccc(-c2oc3cc(Cl)ccc3c(=O)c2O)cc1OC	110	114
CCOC(=O)c1ccc(N2C(=O)c3[nH]nc(-c4ccc(C)cc4)c3C2c2cccc(F)c2)cc1 (stereo not given)	106	108
CC(=O)c1ccc(NC(=O)CSc2ccc3nc(-c4ccccc4)cn3n2)cc1	108	113
O=S(=O)(c1ccc(Cl)cc1)c1nc(-c2cccs2)oc1SCc1ccccc1F	110	113
CC(=O)c1ccc(NC(c2ccc(F)cc2)c2nnc(-c3ccccc3)o2)cc1 (stereo not given)	108	110
COC(=O)c1ccccc1NC(=O)c1ccc(CN2CC(=O)N3CCCCC3C2=O)cc1 (stereo not given)	109	111
Cc1cccc(NC(=O)CSc2cn(CC(=O)N3CCCC3)c3ccccc23)c1C	115	114
COc1ccc2c(CNCCc3cccs3)c(C(=O)O)n(Cc3ccccc3C)c2c1	101	105
Cc1coc2cc3oc(=O)c(CC(=O)NCc4ccc(F)cc4)c(C)c3cc12	112	111
COc1ccccc1-c1nc(CNC(=O)Nc2ccccc2)c(C)o1	108	111
O=C(NCCc1ccc(Cl)cc1)C1CCN(Cc2cc3ccccc3n2Cc2ccccc2)CC1	105	107
COc1cccc(Cn2nnc(C(=O)Nc3cc(C)ccc3C)c2N)c1	99	99
CC(=O)c1ccc(N2C(=O)N(Cc3cccc(C(F)(F)F)c3)c3ccccc3S2(=O)=O)cc1	113	105
Cc1cc(C)n(-c2nc3ccccc3nc2Nc2ccc(Cl)cc2Cl)n1	107	109
CCc1ccc(NC(=O)Cn2c(=O)n(-c3ccccc3C)c(=O)c3c2c2cc(OC)ccc2n3C)cc1	101	107
CCOC(=O)c1cnc2c(ccc3ccccc32)c1Nc1cccc(C(F)(F)F)c1	105	109
CC(C)OCc1cc(CN2CCN(c3cccc(C(F)(F)F)c3)CC2)c(O)c2ncccc12	118	123

The list continues.
mol	Polio RdRp inh	Polio RdRp inh intensity
Cc1nc(-n2nc(C)c(CCC(C)C)c2C)sc1C(=O)Nc1ccc(Br)cc1	107	111
CN(Cc1ccccc1)S(=O)(=O)c1ccc(-c2cnc(C3CC3)o2)cc1	107	112
Clc1ccccc1N1CCN(c2ncnc3c2c(-c2ccccc2)cn3-c2ccccc2)CC1	114	111
COc1ccc(F)cc1S(=O)(=O)Nc1ccc2c(c1)CCCN2C(=O)c1cccs1	108	112
O=C(NCC(c1cccnc1)N1CCOCC1)C(=O)Nc1cccc(Cl)c1 (stereo not given)	113	111
COC(=O)c1ccccc1NC(=O)c1nc(S(=O)(=O)Cc2ccccc2F)ncc1Cl	115	106
COc1ccc(Nc2nc3ccccc3c3nnc(C)n23)cc1Cl	107	107
CCCCN(CCCNC(=O)c1cc(Nc2ccccc2OC)nc2ccccc12)c1ccccc1	103	107
Cc1cccc(N2CCN(S(=O)(=O)c3ccc4c(c3)CC(=O)N4C)CC2)c1C	104	100
COc1ccc(NC(=O)CC2C(=O)N(c3ccc(F)cc3)C(=O)N2Cc2cccnc2)cc1 (stereo not given)	117	112
CCOC(=O)c1cccnc1SCC(=O)N(CC)c1cccc(C)c1	115	117
CCc1nc(-c2cc(S(=O)(=O)N3CCN(c4ccccc4OC)CC3)ccc2OC)no1	107	114
CCOC(=O)c1c(NC(=O)COc2ccccc2F)sc2c1CCCC2	106	111
COc1ccc(CNC(=O)C2=CC(c3ccc(OC)c(OC)c3)=NS(=O)(=O)N2C)cc1	109	109
CCCCN(C)C(=O)C1CCC(Cn2c(=O)[nH]c3ccsc3c2=O)CC1 (stereo not given)	112	109
O=C(Nc1nc(-c2ccc(Br)cc2)ns1)c1ccccc1F	102	103
CCOc1cc(CNS(=O)(=O)c2ccc3c(c2)C(C)(C)C(=O)N3)cc(OCC)c1OCC	107	110
CCN(CC)c1ccc(NC(=O)C2CCN(S(=O)(=O)c3ccc4c(c3)oc(=O)n4C)CC2)c(C)c1	106	110
COc1ccc(-c2nc(SCC(=O)c3ccc(Br)cc3)n[nH]2)cc1	99	98
COc1ccc(NC(=O)c2cc3c(=O)[nH]c4ccccc4c3n2C)cc1Cl	105	106
Cc1cccc(C)c1-n1ncc(C(=O)Nc2ccc3c(c2)OCCO3)c1C1CCN(C(=O)OC(C)(C)C)CC1	106	111
O=S(=O)(c1ccc(Br)cc1)c1nc(-c2cccs2)oc1SCc1ccc(F)cc1	98	100
O=C(Nc1nc2ccc(S(=O)(=O)N3CCCC3)cc2s1)c1cccc(F)c1	109	115
COc1cccc(NC(=O)c2cc(CN3CCOCC3)on2)c1	104	108
C=CCc1c(C)nc2nc(SCC(=O)Nc3ccccc3CC)nn2c1C	110	109
Cc1onc(-c2ccccc2Cl)c1C(=O)Oc1cc(F)cc(F)c1	106	109
Cc1ccc(NC(=O)C(Cc2ccccc2)NS(=O)(=O)c2cccc3nsnc23)c(C)c1 (stereo not given)	103	96
Cc1cccc(C)c1NC(=O)c1cc(S(=O)(=O)N2CCCc3ccccc32)ccc1F	104	103
Cc1ccc(NC(=O)C2CCCN2S(=O)(=O)c2cccc3nsnc23)c(Br)c1 (stereo not given)	109	107
CCc1nn(CCCC(=O)NCc2ccccc2OC)c(=O)c2cc3occc3n12	108	105
COc1ccc(N2C(=O)CS(=O)(=O)C23C(=O)N(Cc2ccc(F)cc2)c2ccc(C)cc23)cc1 (stereo not given)	111	113
O=C(COc1ccc(F)cc1)Nc1ccc2nc(SCCOc3ccccc3)sc2c1	106	114

Assay outcomes from PubChem.
